A647 fluor: compound autofluorescence in A647 spectral region | Compound fluorescence, A647 channel (570/671 nm), Tris buffer | max dye-equivalent concentration, M | 59,000 tested, under 10 active; active means above 1 µM dye equivalent; inconclusive means 0.1 to 1 µM; inactive means 0.1 µM or less;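 note: values scaled relative to a standard on each plate; highest value over a series up to 38 µM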
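Compound fluorescence was measured in 100 mM Tris buffer, pH 8.0, after 15 min at room temperature, using 570 nm excitation and 671 nm emission filters. Signal was normalized to a per-plate Alexa 647 standard curve and expressed as dye-equivalent concentration at each compound concentration.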
AID923: qHTS Assay for Allosteric/Competitive Inhibitors of Caspase-1: Spectroscopic Profiling in AFC Spectral Region; compound fluorescence, AFC spectral region (405/520 nm); almost no hit is shown here; Potency, µM (top dose mostly 57.5 µM), without a hit: top-dose fluorescence increase, hits mostly activators; 75,000 tested, 1.1% active; active = well fitted activation curve with a large enough effect; inconclusive = small, poorly fitted or top-dose-only effect;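 note: potency is the fitted concentration of half-maximal effect; 0% is about no effect; scaled to a free AFC standard on each plate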
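Baseline compound fluorescence (AFC region, 405 nm ex/520 nm em) taken from the intercept of kinetic reads with 50 nM caspase-1 and 5 uM Ac-WEHD-AFC; normalized to an on-plate AFC standard curve; compounds titrated up to 57 uM.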
A488 fluor: A488 region autofluorescence | 59,000 tested, 0.1% active | max dye equivalency, M | compound autofluorescence, A488 spectral region, dye equivalency; hits give high values; active = above 10 nM dye equivalent; inconclusive = 1 to 10 nM; inactive = 1 nM or less; about half of its hits are not listed in these tables;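 note: highest value over a series up to 38 µM; compound alone in buffer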
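Compound autofluorescence was read in 100 mM Tris pH 8.0 after 15 min at room temperature, ex 480 nm/em 540 nm. Intensities were converted to A488 dye-equivalent concentration using an on-plate six-point A488 standard curve.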
Resorufin fluor: resorufin region autofluorescence. AID 588. max dye-equivalent concentration, M. 59,000 tested, 0.04% active. Compound fluorescence, resorufin region 547/598 nm, buffer; hits give high values; active = above 10 nM dye equivalent; inconclusive = 1 to 10 nM; inactive = 1 nM or less; a few of its hits are not listed in these tables; note: highest value over a series up to 38 µM
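Tris 100 mM pH 8.0; compound added, 15 min RT; CCD imager read, ex 547 nm/em 598 nm; signal normalized to resorufin standard curve (six concentrations per plate) as dye-equivalent concentration.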
TSHR agonist: activates the human thyroid stimulating hormone receptor; AID 926; HEK293-CNG-TSHR cells (CNG channel as cAMP sensor), membrane potential dye, cAMP; Potency, µM (titrated, usually from 57.1 µM), for inactives: top-dose activation, actives largely listed as activators; 73,000 tested, 0.48% active; P16473; active = well fitted activation curve of enough size with the parental cells flat; inconclusive = any curve in the parental cells; inactive = parental cells flat and receptor cells flat or falling; note: potency is the fitted concentration of half-maximal effect; % of control where 0% means no effect; weak receptor curves with flat parental cells got no call and are not listed
Target sequence (P16473 whole entry, looked up): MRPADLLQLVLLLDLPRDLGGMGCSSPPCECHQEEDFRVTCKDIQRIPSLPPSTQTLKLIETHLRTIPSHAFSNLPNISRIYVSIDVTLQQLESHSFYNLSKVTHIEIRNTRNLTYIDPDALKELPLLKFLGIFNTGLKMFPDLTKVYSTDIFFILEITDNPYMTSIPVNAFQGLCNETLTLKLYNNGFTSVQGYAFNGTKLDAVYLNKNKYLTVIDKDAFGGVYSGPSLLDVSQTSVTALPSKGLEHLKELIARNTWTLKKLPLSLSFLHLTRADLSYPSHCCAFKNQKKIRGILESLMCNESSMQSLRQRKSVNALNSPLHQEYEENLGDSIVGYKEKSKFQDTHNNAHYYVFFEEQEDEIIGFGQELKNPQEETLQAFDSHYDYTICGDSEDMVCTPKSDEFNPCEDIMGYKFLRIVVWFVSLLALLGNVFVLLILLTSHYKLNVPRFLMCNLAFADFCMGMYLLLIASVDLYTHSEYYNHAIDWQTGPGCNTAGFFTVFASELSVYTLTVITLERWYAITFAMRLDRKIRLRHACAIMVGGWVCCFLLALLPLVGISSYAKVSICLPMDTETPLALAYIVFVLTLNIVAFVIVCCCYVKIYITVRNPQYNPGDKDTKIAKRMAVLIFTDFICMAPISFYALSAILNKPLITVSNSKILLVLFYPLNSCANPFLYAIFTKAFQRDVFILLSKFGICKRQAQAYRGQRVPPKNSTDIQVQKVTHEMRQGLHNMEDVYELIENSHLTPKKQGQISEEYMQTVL
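cAMP rise detected as CNG-channel membrane depolarization by fluorescent dye (emission 590 nm), 30 min after compound, following 60 min dye loading containing 100 uM RO 20-1724 at room temperature. Cells: TSHR/CNG HEK 293, with parental CNG HEK 293 as control.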
Active calls of the source: *; i = inactive; ? = inconclusive; · = no result given; & = joins results of further samples; [ ] = dose if it differs, or a comment. A portion of the library; the hit share may differ from the screen's.

SMILES	A647 fluor	AID923	A488 fluor	Resorufin fluor	TSHR agonist
O=C(O)c1cn(-c2ccccc2)nc1-c1ccncc1	7.6e-09	0.2%	i	i	-12.4%
Cc1nc2ccc(F)cc2cc1C(=O)NC(C)C	1e-09	1.2%	i	i	-1.2%
CC(C)n1c(N2CCN(C(=O)NCc3ccccc3)CC2)nc2ccccc21	2.7e-09	-2.1%	i	i	-1.4%
Cc1ccc2nsnc2c1S(=O)(=O)NCc1ccc2c(c1)OCO2	1e-09	-5.4%	i	i	4.8%
COc1ccc(OC(C)C(=O)Nc2cccc(OC)c2)cc1 (centres undefined)	·	-1.2%	·	·	20.4%
CCOC(=O)N1CCN(C(=O)c2ccccc2-c2ccccc2)CC1	2.08e-08	-1.9%	i	i	21.3%
CC(=NC1CCCC1)c1c(C)[nH]n(-c2nc3ccccc3s2)c1=O	5.46e-08	·	i	i	·
Cc1nc2[nH]onc2c2nccc(=O)c12	1.46e-08	18.0%	i	i	11.3%
CCOC(=O)CSc1nnc(-c2ccccc2OC)o1	1e-09	2.3%	i	i	-6.1%
Cc1nn(Cc2ccc(F)cc2)c(C)c1NC(=O)c1cnn2cccnc12	2.61e-08	-2.0%	i	i	?
O=C(CSCc1ccccc1Cl)N1CCN(c2ccccn2)CC1	7.1e-09	0.6%	i	i	·
CCOc1nc(-c2ccc(OC)cc2)ccc1-c1noc(-c2ccncc2)n1	1e-09	3.4%	i	i	-0.9%
CCOC(=O)C(C)Oc1cccc2c(=O)n(CC(=O)Nc3ccc4c(c3)OCCO4)ccc12 (centres undefined)	·	1.7%	·	·	?
Cc1cc2nc(C3CCN(CC4COc5ccccc5O4)CC3)[nH]c2cc1C (centres undefined)	1e-09	0.5%	i	i	?
CCC(CC)C(=O)Nc1cc(C)c2c(=O)oc3ccccc3c2n1	·	-2.1%	·	·	-3.1%
Cc1ccc(S(=O)(=O)NCCOC(=O)Nc2sc(=S)n(C)c2C)cc1	·	0.4%	·	·	-12.4%[11.4 µM]
Cc1ccc(C(CC(=O)c2ccco2)SCCO)cc1 (centres undefined)	4.2e-09	-1.7%	i	i	-2.4%
CNC(=O)COC(=O)c1cc(F)c(F)cc1Cl	1.05e-08	0.4%	i	i	2.0%
CCN(Cc1ccccc1)c1ccccc1	·	3.3%	·	·	?
CN(C)/C=N/c1sccc1C(N)=O	3.68e-08	4.3%	i	i	5.2%
COc1ccc(-c2nn(C)c(=O)c3ccccc23)cc1CNS(C)(=O)=O	2.52e-08	-0.9%	i	i	12.8%
COCCn1c(SCC(=O)c2ccc3c(c2)OCCO3)nnc1-c1ccoc1C	1.2e-09	2.0%	i	i	9.1%
O=C(NCc1cccs1)C1CCN(S(=O)(=O)c2cccc3nsnc23)CC1	6.8e-09	1.2%	i	i	3.7%
Cn1c(=O)c2c(ncn2CC(=O)Nc2ccc(Cl)cc2Cl)n(C)c1=O	2.33e-08	-0.8%	i	i	-1.0%
CCOC(=O)c1nc(C)[nH]c1C(=O)OCC	3.1e-08	-1.4%	i	i	11.2%
Following part
SMILES	A647 fluor	AID923	A488 fluor	Resorufin fluor	TSHR agonist
O=C(Nc1ccc(-n2cnnn2)cc1)C1CCCN1C(=O)NC1CCCCC1 (centres undefined)	4.2e-09	-1.4%	i	i	?
O=C(Cc1cccs1)NCCn1ccc2ccccc21	·	-4.1%	·	·	-1.9%
CCCCCNC(=O)Cc1ccc(OC)cc1	1.31e-08	1.7%	i	i	0.3%
COc1ccc(C(=O)Nc2ccc(S(=O)(=O)NC(C)=O)cc2)cc1	·	0.6%	·	·	-2.9%
O=C(c1cc(C(F)(F)F)cc(C(F)(F)F)c1)N1CCC2(CC1)CCN(c1ccccn1)CC2	1.8e-09	1.8%	i	i	?
COCCOC(=O)C1=C(C)NC2=C(C(=O)CC(C)(C)C2)C1c1ccc2c(c1)OCO2 (centres undefined)	·	4.2%	·	·	28.7%
CCOC(=O)CSc1nc2c(c(=O)n(C)c(=O)n2C)n1CCCc1ccccc1	1.32e-08	-0.5%	i	i	4.6%
COc1nc2c(C)cccc2cc1-c1noc(-c2ccncc2)n1	1e-09	-0.7%	i	i	·
CC1(C)OC(=O)C(=C2CCCN2)C(=O)O1	·	0.6%	·	·	-5.2%[11.4 µM]
COc1cc(CN2CCN(c3cccc(Cl)c3)CC2)cc(OC)c1OC	2.23e-08	-2.1%	i	i	20.0%
Cc1cccc(OCC(O)Cn2c(NCCCOC(C)C)nc3c2c(=O)[nH]c(=O)n3C)c1 (centres undefined)	2.35e-08	-1.6%	i	i	3.9%
Cc1nc(SCc2cccc(F)c2)[nH]c(=O)c1C#N	6.4e-09	-0.4%	i	i	?
O=c1c2ccccc2nnn1CSc1ccc2c(c1)OCCO2	1e-09	0.1%	i	i	20.6%
O=C(COc1ccccc1Cl)Nc1ccc(Cl)cn1	·	-2.2%	·	·	4.9%
O=C=Nc1ccc(Cl)c(Cl)c1	·	-1.1%	·	·	0.8%
Cc1ccccc1OCC(O)Cn1c(=N)n(CCN2CCOCC2)c2ccccc21 (centres undefined)	2.16e-08	1.6%	i	i	?
NC(=O)C1(N2CCCCC2)CCN(C(=O)CSc2nc3ccccc3o2)CC1	1e-09	2.5%	i	i	-4.9%
CCOC(=O)N1CCC(Nc2nc3ccccc3n3nnnc23)CC1	4.04e-08	2.6%	i	i	?
COC(=O)C1C(=O)C2=C(CC1C)NC(C)=C(C(=O)OC1CCCCC1)C2c1ccc(N(C)C)cc1 (centres undefined)	2.71e-08	12.6%	i	i	-1.5%[11.4 µM]
COc1ccccc1C(=O)Nc1ccccc1SC	2.08e-08	-3.2%	i	i	?
CC1(C)CC(=O)c2c(Cc3ccccc3)n[nH]c2C1	·	2.2%	·	·	0.9%
COc1ccc(/C(O)=C2/C(=O)C(=O)N(CCN3CCOCC3)C2c2ccccn2)cc1 (centres undefined)	2.47e-08	·	i	i	·
COc1ccc(CNC(=O)Cc2nn(C)c(=O)c3ccccc23)cc1	2.3e-09	0.0%	i	i	10.1%[11.4 µM]
COc1cc(OC)cc(C(=O)N2c3ccc(F)cc3CCC2C)c1 (centres undefined)	4.9e-09	0.7%	i	i	12.6µM*
O=c1cc(CSc2ccccn2)nc(N2CCN(c3ccccc3)CC2)[nH]1	2.56e-08	-1.6%	i	i	10.2%
Other results follow:
SMILES	A647 fluor	AID923	A488 fluor	Resorufin fluor	TSHR agonist
N#Cc1cccc(-c2nc(Nc3ccccc3)c3ccccc3n2)c1	1e-09	-1.5%	i	i	?
COc1ccccc1CN1CCCC2(CCN(S(=O)(=O)c3ccccc3)CC2)C1	2.05e-08	0.3%	i	i	?
COCCNC(=O)C1c2ccccc2C(=O)N(CCOC)C1c1ccc(F)cc1 (centres undefined)	1e-09	0.8%	i	i	10.6%
COc1ccc(CN2C(=O)c3cccnc3C2Nc2ccc(OC)c(Cl)c2)cc1 (centres undefined)	6.5e-09	-0.3%	i	i	·
COC(=O)C1=C(C)N(C)C(=O)NC1c1ccc(C)cc1 (centres undefined)	·	-1.9%	·	·	17.2%
Cc1ccc(C)c(NC(=O)CSc2nnc(-c3ccco3)o2)c1	3.9e-09	-0.9%	i	i	4.4%
COc1cc(CNC(=O)CCCCCCC(C)C)ccc1O	1e-09&1e-09	-2.8%&-4.3%	i	i	-0.2%
O=C(CCSc1nnc2scc(-c3ccccc3)n12)NCc1ccc2c(c1)OCO2	3.09e-08	-1.6%	i	i	?
COC(=O)[C@H](Cc1ccccc1)NC(=O)N1CCN(Cc2ccccc2)CC1	3.51e-08	-1.8%	i	i	-4.4%
COc1ccc(C2C(C(C)=O)=C(O)C(=O)N2c2nccs2)cc1OC (centres undefined)	2.51e-08	·	i	i	·
Cc1oc(-c2ccc(Cl)cc2)nc1CN1CCC(C(=O)NCc2ccco2)CC1	7.2e-09	2.5%	i	i	10.8%
CCC(=O)Nc1ccc(C(=O)Nc2ccc3c(c2)OCO3)cc1	1e-09	0.0%	i	i	-6.0%
Cc1ccc(C)n1NC(=O)c1cccs1	4.56e-08	-0.8%	i	i	4.0%
CCOCCn1c(COc2ccccc2)nc2ccccc21	·	-1.8%	·	·	?
CCCOc1ccc(N2C(=O)CC(N3CCOCC3)C2=O)cc1 (centres undefined)	·	0.4%	·	·	-1.7%
Cc1ccc(-n2c(Cn3cnc4ccccc43)nnc2SCC(=O)O)cc1	1e-09	-0.8%	i	i	-0.9%
O=C(CSc1nc2ccccc2[nH]1)NC(=O)NCc1ccco1	4.75e-08	-1.1%	i	i	-3.2%
COc1cc(C)c(C)cc1S(=O)(=O)N1CCN(Cc2ccccc2)CC1	·	0.4%	·	·	21.6%
Cn1c2c(c(=O)n(C)c1=O)C(c1ccc(O)cc1)Nc1ccccc1O2 (centres undefined)	4.08e-08	-1.3%	i	i	6.9%
CCOC(=O)C1=C(C)NC(SCC(N)=O)=C(C#N)C1c1ccncc1 (centres undefined)	1e-09	3.4%	i	i	18.1%
COC(=O)c1ccc2c(=O)n(CC3CCCO3)c(=S)[nH]c2c1 (centres undefined)	2.5e-09	-1.0%	i	i	-4.8%
COc1cc(C(c2sc3nc(C)nn3c2O)N2CCN(c3ccccc3)CC2)cc(OC)c1OC (centres undefined)	·	13.9%	·	·	?
CC(=O)Nc1c2c(nn1-c1ccc(C)cc1C)CSC2	1.71e-08	-0.6%	i	i	-4.2%[11.4 µM]
O=C(O)c1cccc(NC(=O)c2cccc(NC(=O)C3CCCO3)c2)c1 (centres undefined)	1e-09	0.7%	i	i	3.2%
CCOC(=O)CNC(=O)C(Cc1ccccc1)NS(=O)(=O)c1ccc2c(c1)CCC(=O)N2 (centres undefined)	6.9e-09	-0.3%	i	i	-3.4%

Fetched one by one from the entries so far (4):
SMILES	A647 fluor	AID923	A488 fluor	Resorufin fluor	TSHR agonist
CCOCCn1c(COc2ccccc2)nc2ccccc21	·	-1.8%	·	·	?
Cc1ccc(C)c(NC(=O)CSc2nnc(-c3ccco3)o2)c1	3.9e-09	-0.9%	i	i	4.4%
Cn1c2c(c(=O)n(C)c1=O)C(c1ccc(O)cc1)Nc1ccccc1O2 (centres undefined)	4.08e-08	-1.3%	i	i	6.9%
COCCNC(=O)C1c2ccccc2C(=O)N(CCOC)C1c1ccc(F)cc1 (centres undefined)	1e-09	0.8%	i	i	10.6%

(more compounds)
SMILES	A647 fluor	AID923	A488 fluor	Resorufin fluor	TSHR agonist
Cc1sc2nc3c(C(=O)N4CCN(c5ncccn5)CC4)cccn3c(=O)c2c1C	4.16e-08	0.9%	i	i	6.7%
CCCCCc1ccc(CC(=O)O)cc1	8.9e-09	-1.6%	i	i	-5.3%[11.4 µM]
CC(C)C(C(=O)NCc1ccco1)N(C(=O)CNS(=O)(=O)c1ccccc1)C1CCCC1 (centres undefined)	3.6e-09	0.5%	i	i	?
Cc1cccc(NC(=O)C2CCCN2C(=O)OCC(C)C)c1 (centres undefined)	1.77e-08	0.7%	i	i	-0.3%
Cc1c(C(=O)N2CCCCCC2)oc2ccccc12	1.4e-09	-1.9%	i	i	?
CC(CCc1ccccc1)NC(=O)C1CCN(S(=O)(=O)N2CCCCC2)CC1 (centres undefined)	7.6e-09	-2.4%	i	i	16.1%
O=C1CN(C(=O)c2ccccc2)c2ccccc2N1	2.81e-08	-1.1%	i	i	-1.1%
CCOC(=O)N1CCC(Nc2ncnc3c2cnn3-c2ccc(Cl)cc2)CC1	8.3e-09	-0.6%	i	i	-22.0%
COc1ccccc1N(CC(=O)NCc1ccccc1)S(C)(=O)=O	2.5e-09	1.2%	i	i	4.0%
COc1cc(C(=O)N2CCN(S(=O)(=O)c3ccc(C)cc3)CC2)ccc1OCc1c(C)noc1C	5.8e-09	-0.9%	i	i	10.1%
CC(NS(=O)(=O)c1ccccc1)C(c1cccs1)N1CCN(c2ccccc2)CC1 (centres undefined)	3.7e-09	-1.1%	i	i	·

High-throughput results deposited in PubChem by National Center for Advancing Translational Sciences (NCATS).
